Screens deposited in PubChem BioAssay by National Center for Advancing Translational Sciences (NCATS).
Rango-impB inh: Rango-importin beta binding inhibition; Rango CFP/YFP FRET sensor + importin beta, 45 min; Potency, µM (doses to about 92.2 µM), without a hit: at the highest dose inhibition of complex formation; 340,000 tested, 0.031% active; active = rising FRET ratio curve, often small or poorly fitted; inconclusive = mostly compound fluorescence or quenching in the first reads; inactive = flat curves in all reads;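 further: potency means the concentration at half of the fitted maximal effect; 0% = DMSO wells and 100% = buffer wells lacking importin beta; nearly all actives have a fitted effect of over 15% in size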
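Inhibition scored from the CFP 486 nm/YFP 530 nm FRET ratio 45 min after adding 0.125 microM importin beta to 50 nM Rango biosensor preincubated 5 min with compound (room temperature, PBS with DTT, Tween-20, BSA). No-importin wells as positive control.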
miR-21 FLuc: miR-21 reporter, rising signal; Potency, µM (series often up to 38.3 µM), inactives show top-dose reporter change, positive = more light; HeLa miR-21 FLuc reporter, luciferase, 48 h; AID 2288; 340,000 tested, under 10 active; active = well fitted rising curve with a large enough effect; inconclusive = small, poorly fitted or top-dose-only effect; inactive = no such curve, though single readings can be large or run the other way;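 further: % of control where 0% means no effect; miR-21 action dims this reporter so a rising signal means less miR-21 action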
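Luminescence from a firefly luciferase reporter carrying a miR-21 binding site downstream, stably expressed under a CMV promoter in HeLa cells that make miR-21 endogenously, reports miRNA modulation after 48 h compound exposure up to approximately 40uM final.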
GLA inh pH 4.5: alpha-galactosidase A (human) inhibition, pH 4.5 | P06280 | purified enzyme, 4-MU-alpha-Gal fluorescence, pH 4.5 | activity change, negative = inhibition, % at 105 µM | 230,000 tested, under 10 active | AID 1467; inconclusive = small, poorly fitted or top-dose-only inhibition, or a rising curve; inactive = flat fitted curve, though single readings scatter; no compound was filed as active;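 further: 0% = full activity with enzyme and -100% = basal without enzyme; dose as in the result columns while the protocol names 77 µM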
Target sequence (P06280 whole entry, looked up): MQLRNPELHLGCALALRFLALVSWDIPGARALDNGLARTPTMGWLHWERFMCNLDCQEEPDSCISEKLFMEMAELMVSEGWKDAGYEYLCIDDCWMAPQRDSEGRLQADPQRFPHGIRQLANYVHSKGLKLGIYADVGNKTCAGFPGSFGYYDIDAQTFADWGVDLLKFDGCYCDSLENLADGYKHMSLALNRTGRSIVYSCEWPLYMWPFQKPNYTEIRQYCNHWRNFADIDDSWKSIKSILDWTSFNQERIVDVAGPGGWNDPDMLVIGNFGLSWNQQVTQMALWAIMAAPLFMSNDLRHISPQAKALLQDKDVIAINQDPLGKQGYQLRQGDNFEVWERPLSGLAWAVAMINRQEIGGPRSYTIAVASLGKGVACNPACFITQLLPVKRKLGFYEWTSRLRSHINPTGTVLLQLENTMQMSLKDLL
Rango release inh: inhibitors of RanGTP-induced Rango-importin beta complex dissociation; Potency, µM (series often up to 46.1 µM), for the others: top-dose activity change, negative = inhibition; Biochemical FRET Rango-importin beta, RanGTP-induced dissociation; 340,000 tested, 0.071% active; O95149+P62826; active means falling FRET ratio curve, often poorly fitted, with flat reads before Ran was added; inconclusive means other falling curves, or compound fluorescence or quenching; inactive means flat or rising ratio curve;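 further: potency means the concentration at half of the fitted maximal effect; % of control where 0% means no effect; nearly all actives have a fitted effect of over 45% in size; -100% = wells without RanGTP and RCC1; the record marks most hits as doubtful in a second field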
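Two FRET readings bracket the reaction: one 5 min after compound meets Rango–importin beta, another 45 min after RanGTP-RCC1 (0.6 uM Ran, 0.2 uM RCC1, 2 mM GTP) is added. Only the second defines inhibition.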
* marks the source's active call; other numbers are inactive results; ? = inconclusive; nt = no result given; & = joins results of further samples. The list is partial (hit frequency here may not be typical).

Rango-impB inh,miR-21 FLuc,GLA inh pH 4.5,Rango release inh,SMILES
0.0%,-16%,-10,1%,O=C1CC(NNc2ccccc2)C(=O)N1c1ccccc1 (stereo unspecified)
-1.4%,-12%,3,-4%,CCc1ccc(NC2CC(=O)N(c3ccc(OC)cc3OC)C2=O)cc1 (stereo unspecified)
-3.2%,-2%,0,11%,CC(=O)c1sc(NC(=O)C(C)C)nc1C
2.4%,1%,nt,-6%,COc1cccc(CNS(=O)(=O)c2ccc(-n3cnnn3)c(C)c2)c1
-0.4%,-4%,1,-2%,c1ccc(Cn2c(CSc3nnnn3-c3ccccc3)nc3ccccc32)cc1
-2.1%,-8%,nt,3%,O=C(CN(c1ccccc1F)S(=O)(=O)c1ccccc1)Nc1ccc2c(c1)OCCO2
-1.6%,-15%,-26,23%,O=C(CSc1ccc2ccccc2c1Br)Nc1cccc(S(=O)(=O)NC2=NCCCCC2)c1
-4.4%,-10%,2,-16%,O=C1CC(N2CCN(c3ccc(F)cc3)CC2)C(=O)N1Cc1cccs1 (stereo unspecified)
-1.7%,2%,2,-26%,CCc1ccccc1N1CC23C=CC(O2)C(C(=O)OCC(C)C)C3C1=O (stereo unspecified)
0.1%,-1%,5,?,COc1ccc(CCNC(=O)CCN2C(=O)COc3ccc(C)cc32)cc1OC
1.6%,4%,nt,?,Cc1ccc(C(=O)NCC(=O)Nc2ccncc2)cc1
-0.4%,-7%,7,5%,Cc1cc(C)n2nc(SCC(=O)N/N=C/c3ccccn3)nc2n1
nt,-22%,4,nt,CCNC(=S)N/N=C(\C)c1ccc2ccccc2c1
?,1%,-14,?,COc1ccc(OC)c(/C=c2\sc3nc(-c4cccs4)nn3c2=O)c1
-0.5%,nt,nt,18%,CSc1nc(N)nc2c1ncn2CC(=O)N[C@H](C)c1cccc2ccccc12

Exported as labelled records: 3 of the compounds above
COc1ccc(CCNC(=O)CCN2C(=O)COc3ccc(C)cc32)cc1OC
  Rango-impB inh: 0.1%	miR-21 FLuc: -1%	GLA inh pH 4.5: 5	Rango release inh: ?
Cc1ccc(C(=O)NCC(=O)Nc2ccncc2)cc1
  Rango-impB inh: 1.6%	miR-21 FLuc: 4%	GLA inh pH 4.5: nt	Rango release inh: ?
Cc1cc(C)n2nc(SCC(=O)N/N=C/c3ccccn3)nc2n1
  Rango-impB inh: -0.4%	miR-21 FLuc: -7%	GLA inh pH 4.5: 7	Rango release inh: 5%

Reformatted: entries from further up
SMILES,Rango-impB inh,miR-21 FLuc,GLA inh pH 4.5,Rango release inh
c1ccc(Cn2c(CSc3nnnn3-c3ccccc3)nc3ccccc32)cc1,-0.4%,-4%,1,-2%
O=C(CN(c1ccccc1F)S(=O)(=O)c1ccccc1)Nc1ccc2c(c1)OCCO2,-2.1%,-8%,nt,3%
O=C(CSc1ccc2ccccc2c1Br)Nc1cccc(S(=O)(=O)NC2=NCCCCC2)c1,-1.6%,-15%,-26,23%

The listing continues:
Rango-impB inh,miR-21 FLuc,GLA inh pH 4.5,Rango release inh,SMILES
1.9%,?,1,13%,C=C(C)C1CCC2(C(=O)O)CCC3(C)C(CCC4C5(C)C(C=O)C(O)C(C)(C)C5CCC43C)C12 (stereo unspecified)
6.2%,-1%,-1,0%,O=C(NC1CCCCC1)C(c1ccc(F)cc1)N(Cc1ccco1)C(=O)c1ccccn1 (stereo unspecified)
0.9%,0%,-8,1%,CC(C)OCCCNC(=O)CCC(=O)NNc1nc2ccccc2c2nc(-c3ccccc3)nn12
2.2%,nt,nt,-4%,COc1cc(C#Cc2ccc3cc(C(C)(C)O)oc(=O)c3c2)cc(OC)c1
6.1%,nt,nt,-15%,COC(=O)C1CCc2c(ccc3c2CCCC3)C1=O (stereo unspecified)
-2.0%,1%,1,7%,Nc1nc(SCC(=O)NCCC(c2ccccc2)c2ccccc2)n[nH]1
1.2%,0%,-22,-9%,CCN1CCN(CCc2nc3cc([N+](=O)[O-])ccc3n2C)CC1
1.6%,-13%,nt,-5%,COc1ccccc1CNC(=O)COc1ccc(Br)c(C)c1
-3.3%,0%,2,17%,Cc1onc(-c2ccccc2)c1C(=O)Nc1nnc(N(C)Cc2ccccc2)s1
9.5%,-11%&0%,nt,21%,Cc1ccc(C(=O)Nc2nnc(S(=O)(=O)N3CCN(c4ccc(F)cc4)CC3)s2)cc1
0.0%,nt,nt,0%,COc1cc(C=NNc2ccc(S(=O)(=O)Nc3ccccc3C(=O)O)cc2[N+](=O)[O-])ccc1O
4.2%,3%,-6,-21%,COc1cccc(NC(=O)COC(=O)CC(NC(N)=O)c2ccc(Cl)cc2)c1 (stereo unspecified)
3.7%,-25%,-17,-8%,O=C(Nc1ncccc1Cl)c1ccccc1F
-2.2%,-17%,3,-17%,CN=C1S/C(=C\c2ccc(N3CCOCC3)c(F)c2)C(=O)N1C
1.6%,-1%,nt,-15%,Cc1ccccc1C(=O)NCCCNC(=O)c1cnccn1
0.2%,nt,nt,12%,O=C(Cc1ccccn1)c1ccncc1
-0.1%,1%,6,-1%,CC(C)Oc1ccc(CCc2n[nH]c(=S)n2-c2ccccc2)cc1
-5.6%,6%,-11,-8%,Cc1ccc(Oc2ccc(-c3nc(N)nc(N)n3)cc2)cc1C
?,10%,-18,?,N=C1S/C(=C\c2ccc(-c3ccccc3C(=O)O)o2)C(=O)N1c1ccc2c(c1)OCO2
0.6%,17%,-1,-14%,Cc1nc2ccccc2c2oc(C(=O)NCCCN3CCC(C)CC3)cc12
?,8%,nt,-1%,COc1ccccc1C(=O)NNC(=O)C(=O)Nc1ccc(C)c(Cl)c1
nt,0%,7,nt,COc1cc(CCC(=O)N2CCN(c3ccc(N4CCOCC4)nn3)CC2)cc(OC)c1OC
-2.2%,-10%,nt,4%,CC(C)c1cc(=O)[nH]c(SCC(=O)NC2CCCC2)n1
-2.6%,4%,4,10%,Cc1ccc(C)c(OCC(=O)NC(Cc2c[nH]c3ccccc23)C(=O)O)c1 (stereo unspecified)
0.3%,-3%,4,-2%,CCOc1ccc(-n2cnnn2)cc1S(=O)(=O)NCCc1ccc(OC)c(OC)c1
2.7%,-72%,-2,2%,CN1CCC(Oc2ccc(Sc3ccccc3)cc2)CC1
?,5%,-1,1%,CCN1CCN(CCCN(Cc2ccco2)C(=S)Nc2cc(Cl)ccc2C)CC1
-0.7%,-1%&1%,-1,-5%,CCCNc1ncnc2onc(C)c12
-3.7%,nt,nt,4%,O=C(CN1CCSC1=O)N1CCN(S(=O)(=O)c2ccc(Cl)cc2)CC1
nt,-43%,-13,nt,N#CC1(c2ccc(NC(=O)c3ccccc3)cc2)CCCC1
2.2%,-11%,4,-2%,COC(=O)C1CCN(C(=O)c2sc3nc(-c4ccc(F)cc4)cn3c2C)CC1
-0.2%,1%,-4,4%,O=C(NC(=S)NCCO)c1cn(-c2ccccc2)nc1-c1ccccc1
?,-2%,-3,?,CC1CC/C(=C\c2ccc3c(c2)OCO3)C(=O)/C1=C/c1ccc2c(c1)OCO2 (stereo unspecified)
1.7%,-1%,-9,-22%,O=C(Nc1ccc([N+](=O)[O-])cn1)c1cc(-c2cccc(Br)c2)nc2ccccc12
1.6%,0%,-13,2%,CC1(C)CC(=O)C(Sc2ccccc2)=C(O)C1
2.0%,3%,1,0%,COc1ccc(/C=C/CN2CCN(Cc3cccc(OC)c3)C(CCO)C2)cc1 (stereo unspecified)
-0.6%,-3%,-7,3%,O=C(CNS(=O)(=O)c1cccc2nonc12)NCc1ccc(F)cc1
?,1%,nt,0%,O=C(Nc1nnc(SCc2cccnc2)s1)C1CC(=O)N(c2ccc(F)cc2)C1 (stereo unspecified)
2.4%,nt,nt,6%,COc1ccc(C(=O)C2CCCN(C(=O)c3ccc(OC)o3)C2)c(C)c1 (stereo unspecified)
5.6%,nt,nt,6%,O=C(NN=Cc1ccccc1C(=O)O)C(=O)NN=Cc1ccccc1C(=O)O
5.3%,nt,nt,?,O=c1[nH]c2c(=O)[nH]cnc2nc1-c1ccccc1
-1.0%,-55%,9,0%,CCn1c(COc2ccc(OC)cc2)nc2ccccc21
0.0%,0%,-2,?,COc1ccc(CCNC(=O)C2CC3Cn4c(nc5cc(Cl)c(Cl)cc54)C3N2C)cc1 (stereo unspecified)
-2.4%,0%,nt,9%,COc1cccc(CC(NC(C)=O)C(=O)NC2CCN(C(=O)c3ccncc3)CC2)c1OC (stereo unspecified)
3.5%,-6%,nt,-4%,Cc1ccc(N2CCN(/N=C/c3cccnc3)CC2)cc1
?,-4%,27,?,CCCCCCc1cc2cc(S(=O)(=O)c3ccc(F)cc3)c(=O)oc2cc1O
-0.4%,nt,nt,3%,C[C@]12C(=O)N(c3cccc(Cl)c3)C(=O)N1[C@@H]1c3ccccc3OC[C@@H]1[C@H]2c1ccccc1
2.5%,-2%,nt,5%,Cc1ccc(N2CN(S(=O)(=O)c3cccc([N+](=O)[O-])c3)c3nc4ccccc4nc32)cc1
-0.4%,-21%,-7,0%,O=C(Nc1ccc(Cl)c(Cl)c1)OCc1cnc(Cl)s1
-3.1%,nt,nt,-13%,Cc1cc(-c2nc3ncccc3o2)ccc1NC(=O)c1ccc([N+](=O)[O-])o1
-0.6%,-5%,7,-1%,COC(=O)C1=NNC2(c3ccc(Cl)cc3)C(=O)N(c3ccccc3)C(=O)C12 (stereo unspecified)
?,-5%,8,-20%,CCOC(=O)/C=c1\s/c(=C\c2ccc(-c3ccccc3)cc2)c(=O)n1CC(=O)NCc1ccc2c(c1)OCO2
0.9%,0%,0,-11%,COc1ccc(/C=N/NC(=O)c2ccncc2)c(C(=O)O)c1OC
2.2%,4%,-1,7%,C=CCNC(=S)NCc1cccnc1
5.0%,-20%,-2,-15%,COc1ccc(C(=O)Nc2ccc(NC(=O)c3ccco3)c(Cl)c2)cc1OC
-5.8%,0%,1,0%,COc1ccc(S(=O)(=O)N(CC(=O)NCc2cccnc2)C2CCCCC2)cc1OC
-0.8%,27%,-14,-7%,Cc1ccc(S(=O)(=O)Nc2ccc(O)c3ncccc23)cc1
3.0%,nt,nt,8%,CCCCCN(C(=O)CCC(=O)OCc1cc(C)ccc1C)c1c(N)n(CCCC)c(=O)[nH]c1=O
4.1%,-1%,0,-14%,COc1cc(NC(=O)c2ccco2)c(OC)cc1NC(=O)Nc1ccccc1Cl
nt,-4%,-7,nt,COC(=O)c1ccc2c(c1)N(Cc1cc(C)ccc1C)C(=O)c1ccccc1S2=O (stereo unspecified)

More structures follow:
Rango-impB inh,miR-21 FLuc,GLA inh pH 4.5,Rango release inh,SMILES
-0.9%,nt,nt,5%,COc1ccc(OC)c(C(=O)N(C[C@H]2CC[C@@H]([C@@H]3CC[C@H](CO)O3)O2)C(C(=O)NC(C)(C)C)c2ccc(-c3ccccc3)cc2)c1 (stereo partly specified)
-4.0%,-1%,-6,-2%,O=C1N2CCSC2=NC1(Nc1nccs1)C(F)(F)F (stereo unspecified)
-0.2%,-7%,1,10%,Cc1ccc(C(C(=O)NC(C)(C)C)N(C(=O)c2csnn2)c2ccccc2F)o1 (stereo unspecified)
-0.4%,nt,nt,3%,CC#C[C@@H](CC)c1ccc2ccn(C)c2c1
0.8%,-2%,4,-17%,CC(=O)NCCC1CCCCN1Cc1nc(Cc2cccc(C(F)(F)F)c2)no1 (stereo unspecified)
0.5%,-11%,1,-10%,Cc1cc(C)nc(SCc2ccc([N+](=O)[O-])cc2)n1
0.6%,-3%,-7,1%,CC(C)(C)C(=O)NC(NC(=S)Nc1sc2c(c1C#N)CCCC2)C(Cl)(Cl)Cl (stereo unspecified)
-1.1%,0%,1,9%,CNC(=O)COC(=O)c1cc(SC)ccc1Cl
5.9%,-12%,-13,5%,O=C(COc1ccccc1O)N1CCN(C(=O)c2ccco2)CC1
6.7%,21%,-23,-2%,O=C(NCc1ccco1)c1cccc(Nc2nc3ccc(Br)cc3[nH]2)c1
?,-9%,2,-18%,O=C1C2C3C=CC(C3)C2C(=O)N1c1cccc(N2C(=O)C3C4C=CC(C4)C3C2=O)n1 (stereo unspecified)
-3.2%,-1%,2,12%,COCC1=C(C(=O)OC)C(c2cccs2)n2ncnc2N1 (stereo unspecified)
-1.2%,23%,-6,-21%,Cc1cccc(Cn2nc(C(C)(C)C)cc2C(=O)Nc2ccc(F)cc2)c1
